StopGo FLuc – lowers the firefly signal of an FMDV 2A StopGo reporter; HEK cells with a luciferase reporter of 2A StopGo recoding; Potency, µM (titrated, usually from 57.5 µM), for the others: top-dose signal change, negative = less light; 120,000 tested, 0.23% active; AID 1745856; active = well fitted falling curve with a large enough effect; inconclusive = small, poorly fitted or top-dose-only effect; inactive = no such curve, though single readings can be large or run the other way; note: nearly all actives have a fitted effect of over 60% in size; overnight with compound
2A Renilla – FMDV 2A StopGo reporter, Renilla signal | HEK cells with a luciferase reporter of 2A StopGo recoding | Potency, µM (doses to about 57.5 µM), for the others: top-dose signal change, negative = less light | 120,000 tested, 0.32% active; active means well fitted falling curve with a large enough effect; inconclusive means small, poorly fitted or top-dose-only effect; inactive means no such curve, though single readings can be large or run the other way; note: nearly all actives have a fitted effect of over 55% in size; overnight with compound
* = called active by the depositor; ? = inconclusive; & = joins results of further samples; [ ] = another dose, or the depositor's remark. % is set by controls: 0 for no effect and ±100 for the full control effect; potency is the fitted concentration of half-maximal effect. These rows are one share of the data; the hit share may differ from the screen's.

SMILES	StopGo FLuc	2A Renilla
CCN(CC)CCOc1ccc(Cc2ccccc2)cc1	?	-13.7%
Cc1cccc(Cc2c(C)nc3c(-c4ccccc4)c(C)[nH]n3c2=O)c1	14.2%	1.1%
CN(C)S(=O)(=O)n1cc(/C=C(\NC(=O)c2ccccc2)C(=O)NCCCn2ccnc2)c2ccccc21	5.1%	-56.8%
CS(=O)(=O)c1ccc(-c2cn3ccccc3n2)cc1	68.1%[activator]	4.3%
CC(Cc1cccc(C(F)(F)F)c1)NCCOC(=O)c1ccccc1 (stereo unspecified)	-26.6%	-22.2%
CCn1ccc(NS(=O)(=O)c2ccc(N)cc2)nc1=O	-17.4%	-9.5%
CCCOc1ccc(C(=O)OCCN(CC)CC)cc1N	-14.5%[11.5 µM]	-6.7%
CCCCCCCCCCCCOCCOCCOCCOCCOCCOCCOCCOCCOCCO	?	?
O=C(O)Cc1cn(-c2ccccc2)nc1-c1ccc(Cl)cc1	-5.2%	0.8%
CN1[C@@H]2CC[C@H]1CC(NC(=O)n1c(=O)[nH]c3ccccc31)C2 (stereo partly specified)	-13.0%	-8.3%
CCCCOCCOC(=O)c1cccnc1	-3.0%[11.5 µM]	-3.7%
CN[C@@H]1[C@H](O)[C@H](NC)[C@H]2O[C@@]3(O)C(=O)C[C@@H](C)O[C@H]3O[C@@H]2[C@H]1O	-4.9%[11.5 µM]	-4.6%
CCN(CC)CC1CCCCN1CC(=O)N1c2ccccc2C(=O)Nc2cccnc21 (stereo unspecified)	-6.2%	-6.3%
N=c1nc(N2CCCCC2)cc(N)n1O	-9.9%	-11.5%
O=C(NC1CCN(CCc2c[nH]c3ccccc23)CC1)c1ccccc1	-18.0%	-9.5%
O=[N+]([O-])c1cncn1CCN1CCOCC1	-7.7%	0.5%
Cc1scc2c1N(C(=O)CN1CCN(C)CC1)c1ccccc1NC2=O	-16.7%	-9.8%
CCCOc1ccc2nc(NC(=O)OC)[nH]c2c1	-2.3%	-7.7%
Cc1c(Cl)cccc1NC(=O)Cn1cc(C(=O)C2CCCCC2)c2ccccc21	?	-2.7%
Cc1ccc(C)c(Nc2nc3nonc3nc2Nc2cccc(C)c2C)c1	?	?
CCCC(=O)O[C@]1(C(=O)CCl)[C@@H](C)C[C@H]2[C@@H]3CCC4=CC(=O)C=C[C@]4(C)[C@@]3(F)C(=O)C[C@@]21C	2.7%	25.0%
CN(C)CC/C=C1/c2ccccc2COc2ccc(CC(=O)O)cc21	-12.7%[11.5 µM]	-4.0%
CCOC(=O)c1nc(NCc2ccc(OC)cc2OC)c2ccccc2n1	0.0%	-5.9%
Cc1ccccc1OCC(O)CO (stereo unspecified)	18.0%[11.5 µM]	-1.1%
COc1ccc(C(=O)c2ccccc2)c(O)c1	18.6%	-0.2%
CC(C)C[C@@H]1[C@H](c2ccccc2)OC(=O)N1CCCN1CCCCCC1	-20.4%	-9.0%
CCCCCCCCCCCCCCCC[N+](C)(C)Cc1ccccc1	-25.6%	-14.1%
CCOC(=O)c1sc(NC(=O)c2c(-c3ccccc3)c(-c3ccccc3)nn(C)c2=O)nc1C	-13.6%	16.3%
Nc1c2ccccc2nc2ccccc12	11.3%[11.5 µM]	1.9%
O=C(CCN1CCN(CCO)CC1)N1c2ccccc2Sc2ccc(C(F)(F)F)cc21	22.6%[11.5 µM]	3.1%
Cc1nc(C2CCCCC2)c(-c2ccc(S(N)(=O)=O)c(F)c2)o1	-5.0%	21.0%
CCc1cccc(CC)c1NC(=O)CN(CC(=O)O)CC(=O)O	8.7%[11.5 µM]	-6.0%
Cc1cccc(N(C)C(=S)Oc2ccc3c(c2)CCC3)c1	-10.8%	-11.4%
COc1cc(C=O)ccc1O	-1.0%	2.0%
CCCCCCCCCCCC[N+](C)(C)Cc1ccccc1	?	?
O=C(NCCCN1CCOCC1)c1ccc(Cl)cc1	18.5%[11.5 µM]	-7.1%
CN(C)c1ccc2nc3ccc(=[N+](C)C)cc-3sc2c1	8.9%	?
CC(C)NNC(=O)c1ccncc1	-13.8%	-5.3%
Cc1nc2c3ccccc3nc(NNC(=O)CCC(=O)N3CCN(c4ccccc4F)CC3)n2n1	18.5%	-12.1%
COc1ccc(-c2cc(C(F)F)nn2-c2ccc(S(N)(=O)=O)cc2)cc1F	-20.4%	10.3%
O=C(O)c1cc(=O)c2ccccc2o1	18.2%	7.9%
CCN(CCCCOC(=O)c1ccc(OC)c(OC)c1)C(C)Cc1ccc(OC)cc1 (stereo unspecified)	-20.0%	-9.1%
CNS(=O)(=O)CCc1ccc2[nH]cc(C3CCN(C)CC3)c2c1	-9.7%	-8.4%
C[C@@H]1CCC[C@H](C)N1CCCC(O)(c1ccccc1)c1ccccn1 (stereo partly specified)	-26.4%	-18.1%
CC(C)CCCC(C)NCCC(C)C (stereo unspecified)	-14.2%	-10.1%
Cn1ccc2cc3c(cc21)CCN3C(=O)Nc1cccnc1	-10.4%[27 µM]	-6.6%[23.8 µM]
CC1(C)O[C@@H]2C[C@H]3[C@@H]4C[C@H](F)C5=CC(=O)C=C[C@]5(C)[C@@]4(F)[C@@H](O)C[C@]3(C)[C@]2(C(=O)CO)O1	0.8%	8.6%
O=C(O)c1ccc(-n2nc(-c3ccccc3O)nc2-c2ccccc2O)cc1	-16.0%[11.5 µM]	?
CC(C)OCc1cc(CN2CCN(c3ccccc3)CC2)c(O)c2ncccc12	-6.6%	-8.2%
CCCCOc1cc(C(=O)OCCN(CC)CC)ccc1N	-14.9%[11.5 µM]	-13.5%
COC(=O)N/N=C/c1c[n+]([O-])c2ccccc2[n+]1[O-]	-4.5%	-6.5%
O=C(O)C1Cc2ccccc2CN1 (stereo unspecified)	-2.2%	-1.6%
Cc1cc(=O)oc2cc(O)ccc12	-11.9%[11.5 µM]	-8.6%
NS(=O)(=O)c1ccc(N2CCCCS2(=O)=O)cc1	7.0%[11.5 µM]	18.6%
C[C@@H]1C[C@H]2[C@@H]3CCC4=CC(=O)C=C[C@]4(C)[C@@]3(Cl)[C@@H](O)C[C@]2(C)[C@@]1(OC(=O)c1ccco1)C(=O)CCl	-0.6%[11.5 µM]	-27.0%
CN(c1nccc(=O)[nH]1)C1CCN(c2nc3ccccc3n2Cc2ccc(F)cc2)CC1	-9.9%	-7.3%
Cc1c(C)n(Cc2ccccc2)c2ccc(C(=O)OCCN(C)C)cc12	26.5%	4.6%
CN(C)CCCSc1ccccc1NC(=O)/C=C/c1ccccc1	0.7%	-7.5%
CCOC(=O)[C@H](CCc1ccccc1)N[C@@H](C)C(=O)N1C(=O)N(C)C[C@H]1C(=O)O	-17.9%	-13.7%
NCc1ccccc1Sc1ccccc1CO	-14.7%[11.5 µM]	70.0%[activator]

As a working copy, 4 of the compounds above.
SMILES	StopGo FLuc	2A Renilla
O=C(O)c1cc(=O)c2ccccc2o1	18.2%	7.9%
CCN(CCCCOC(=O)c1ccc(OC)c(OC)c1)C(C)Cc1ccc(OC)cc1 (stereo unspecified)	-20.0%	-9.1%
CNS(=O)(=O)CCc1ccc2[nH]cc(C3CCN(C)CC3)c2c1	-9.7%	-8.4%
C[C@@H]1CCC[C@H](C)N1CCCC(O)(c1ccccc1)c1ccccn1 (stereo partly specified)	-26.4%	-18.1%

Continued:
SMILES	StopGo FLuc	2A Renilla
Cc1nc2n(c(=O)c1CCN1CCC(C(=O)c3ccc(F)cc3)CC1)CCS2	7.5%[11.5 µM]	-3.2%
CCOC(=O)c1ccc(NC(=O)c2cc(=O)c3ccc(C)c(C)c3o2)cc1	8.5%&-8.7%	1.9%&-8.6%
O=C(/C=C/c1ccc(Cl)cc1)c1cccc(O)c1	35.9%[activator]	-3.8%[1.06 µM]
CC(C)NCCCC1(C(N)=O)c2ccccc2-c2ccccc21	-29.5%	-19.6%
CC(=O)OCC(=O)[C@@]1(O)CC[C@H]2[C@@H]3CCC4=CC(=O)C=C[C@]4(C)[C@@]3(F)[C@@H](O)C[C@@]21C	13.7%[11.5 µM]	19.5%
O=C(O)Cc1sc(-c2ccccc2)nc1-c1ccc(Cl)cc1	-13.3%	-0.3%
CC(=O)N[C@@H](Cc1ccccc1)C(=O)O	-0.5%	1.6%
Cc1ccccc1N1CCN(CCc2nnc3n2CCCC3)CC1	-11.4%[11.5 µM]	-14.4%
CN(C(=O)c1c(O)c2ccccc2n(C)c1=O)c1ccccc1	-13.4%[11.5 µM]	-4.3%
CCOc1ccc2nc(N3CCC(C(=O)Nc4ccccc4CC)CC3)sc2c1	37.9%[activator]	-16.1%
CCN(CC)C(=O)C1CN2CCc3cc(OC)c(OC)cc3C2CC1OC(C)=O (stereo unspecified)	-19.1%	-12.8%
CN(C)C(=O)CNC(=O)Cc1ccccc1	-13.5%	-15.5%
CC(=O)Nc1ccc(OC(=O)c2ccccc2OC(C)=O)cc1	-9.0%[11.5 µM]	3.8%
CCOC(=O)c1ccccc1O	-13.7%	-6.0%
CCCCN(CCCC)CCCOC(=O)c1ccc(N)cc1	-14.6%	-7.4%
CC[C@H](C)[C@H](N)C(=O)O	16.3%[11.5 µM]	-4.3%
O=C1c2c(O)ccc(O)c2C(=O)c2c(NCCNCCO)ccc(NCCNCCO)c21	28.2µM*	?
C=CCN1C[C@H](C(=O)N(CCCN(C)C)C(=O)NCC)C[C@@H]2c3cccc4[nH]cc(c34)C[C@H]21	-22.8%	-14.5%
CC(C)(C)NCC(O)COc1cccc2c1C[C@H](O)[C@H](O)C2 (stereo partly specified)	-16.0%	-11.0%
CCCCC(CC)COC(=O)c1ccccc1O (stereo unspecified)	-10.2%	-5.8%
COC(=O)C1=C(C)NC(C)=C(C(=O)OCCN2CCN(C(c3ccccc3)c3ccccc3)CC2)C1c1cccc([N+](=O)[O-])c1 (stereo unspecified)	-8.6%	-11.1%
CCn1cc(C(=O)O)c(=O)c2cc(F)c(N3CCNC(C)C3)c(F)c21 (stereo unspecified)	18.7%	29.5%

Molecules from the list above that have sulfur, in the order listed:
SMILES	StopGo FLuc	2A Renilla
CN(C)S(=O)(=O)n1cc(/C=C(\NC(=O)c2ccccc2)C(=O)NCCCn2ccnc2)c2ccccc21	5.1%	-56.8%
CS(=O)(=O)c1ccc(-c2cn3ccccc3n2)cc1	68.1%[activator]	4.3%
CCn1ccc(NS(=O)(=O)c2ccc(N)cc2)nc1=O	-17.4%	-9.5%
Cc1scc2c1N(C(=O)CN1CCN(C)CC1)c1ccccc1NC2=O	-16.7%	-9.8%
CCOC(=O)c1sc(NC(=O)c2c(-c3ccccc3)c(-c3ccccc3)nn(C)c2=O)nc1C	-13.6%	16.3%
O=C(CCN1CCN(CCO)CC1)N1c2ccccc2Sc2ccc(C(F)(F)F)cc21	22.6%[11.5 µM]	3.1%
Cc1nc(C2CCCCC2)c(-c2ccc(S(N)(=O)=O)c(F)c2)o1	-5.0%	21.0%
Cc1cccc(N(C)C(=S)Oc2ccc3c(c2)CCC3)c1	-10.8%	-11.4%
CN(C)c1ccc2nc3ccc(=[N+](C)C)cc-3sc2c1	8.9%	?
COc1ccc(-c2cc(C(F)F)nn2-c2ccc(S(N)(=O)=O)cc2)cc1F	-20.4%	10.3%
CNS(=O)(=O)CCc1ccc2[nH]cc(C3CCN(C)CC3)c2c1	-9.7%	-8.4%
NS(=O)(=O)c1ccc(N2CCCCS2(=O)=O)cc1	7.0%[11.5 µM]	18.6%
CN(C)CCCSc1ccccc1NC(=O)/C=C/c1ccccc1	0.7%	-7.5%
NCc1ccccc1Sc1ccccc1CO	-14.7%[11.5 µM]	70.0%[activator]
Cc1nc2n(c(=O)c1CCN1CCC(C(=O)c3ccc(F)cc3)CC1)CCS2	7.5%[11.5 µM]	-3.2%
O=C(O)Cc1sc(-c2ccccc2)nc1-c1ccc(Cl)cc1	-13.3%	-0.3%
CCOc1ccc2nc(N3CCC(C(=O)Nc4ccccc4CC)CC3)sc2c1	37.9%[activator]	-16.1%

Screens deposited in PubChem by National Center for Advancing Translational Sciences (NCATS).
